High-throughput results from PubChem BioAssay.
Prx2 Sm inh – Schistosoma Mansoni Peroxiredoxins (Prx2) | S. mansoni Prx2 activity coupled to TGR/GSH (TGR is thioredoxin glutathione reductase), NADPH fluorescence loss, qHTS; some inactives read as strong as hits | Potency, µM | hit rate 0.07% among 65,000 | AID 448, 2006; active means full or partial inhibition curve with a strong effect at the top dose; inconclusive means weaker partial or single-point curve; inactive means no accepted curve; note: series up to 57 µM; many of its hits are not listed in these tables
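Enzyme mix: 100 uM NADPH, 25 nM TGR, 700 uM GSH, 50 nM Prx2 in 100 mM phosphate pH 7.4, 10 mM EDTA, 0.01% Tween-20. 15 min RT with compound; NADPH/GSH added, H2O2 starts reaction; NADPH fluorescence read 8 min.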
Anthrax LT inh – qHTS Assay for Anthrax Lethal Toxin Internalization; hit rate 0.67% among 70,000; Potency, µM (highest dose often 40 µM), for inactives: at the highest dose activity change, negative = inhibition, actives largely listed as inhibitors; AID 912, 2007; Cells, anthrax lethal toxin internalization, FRET ratio (460/530); active = well fitted falling ratio curve with the 530 nm signal flat; inconclusive = other ratio curves, or a change in one channel alone; inactive = flat curves in the ratio and both channels; the % refers to the ratio; note: % is set by controls: 0 for no effect and ±100 for the full control effect; nearly all actives have a fitted effect of over 50% in size; tested in ME-180 cells; beta-lactamase reporter
An asterisk follows results filed as active; [ ] = dose if it differs, or a comment. Potency is the fitted concentration of half-maximal effect. Some of the compounds tested; count on the stated rates, not on these rows.

`CCc1ccc(NC(=O)C2CC(=O)N=C(N)S2)cc1` (centres undefined) gave Prx2 Sm inh >57 and Anthrax LT inh -14.4%.
Screening N#CC1=C(N)C(C#N)(C#N)[C@H](c2ccncc2)[C@H]2CC3(CC=C12)OCCO3 returned Prx2 Sm inh >57 and Anthrax LT inh inconclusive.
For O=C1c2ccccc2C(Nc2ccc(Cl)cn2)N1c1ccccn1 (centres undefined) the results were Prx2 Sm inh >57 and Anthrax LT inh -22.2%.
For COc1ccc(N2CCN(Cc3nc4c(c(=O)n(C)c(=O)n4C)n3Cc3ccccc3C)CC2)cc1 the results were Prx2 Sm inh >57 and Anthrax LT inh 9.3%.
Screening COc1cccc(CCc2ccccc2OCC[C@@H]2C[C@@H](O)CN2C)c1 returned Anthrax LT inh inconclusive.
N#CCCn1c(=O)c(-c2ccc(F)cc2)nc2cnc(Oc3ccccc3)nc21 was read as Prx2 Sm inh >11.4 and Anthrax LT inh inconclusive.
Screening COC(=O)Cn1c(CCS(=O)(=O)c2ccc(C)c(C)c2)nc2ccccc21 returned Prx2 Sm inh >57 and Anthrax LT inh 2.9%.
For Cc1cc(C)nc(SCC(=O)Nc2ccc(S(=O)(=O)Nc3onc(C)c3C)cc2)n1 the results were Prx2 Sm inh >57 and Anthrax LT inh -4.5%.
`O=C(C1COc2ccccc2O1)N1CCN(c2ccc(F)cc2)CC1` (centres undefined) gave Prx2 Sm inh >57 and Anthrax LT inh -5.9%.
`Cc1cccn2c(=O)c3cc(C(=O)NCc4cccnc4)c(=N)n(C(C)C)c3nc12` gave Anthrax LT inh inconclusive.
For CN1C[C@H](CO)C=C2c3cccc4[nH]cc(c34)C[C@@H]21 the results were Prx2 Sm inh >57 and Anthrax LT inh -1.6%[3.58 µM].
c1nc(N2CC2)c2cnn([C@@H]3CCCCO3)c2n1 was read as Prx2 Sm inh >57 and Anthrax LT inh -15.9%[8 µM].
For COc1ccc(C(CC(=O)O)NC(=O)c2ccccc2)cc1OC (centres undefined) the results were Prx2 Sm inh >57 and Anthrax LT inh 13.8%.
Screening COc1cccc(N2C(=O)Nc3ccccc3C2(O)C(=O)NCc2ccc3c(c2)OCO3)c1 (centres undefined) returned Prx2 Sm inh >57 and Anthrax LT inh 13.9%.
Screening CN(C)c1nc(SCC#N)nc(N(C)C)n1 returned Prx2 Sm inh >57 and Anthrax LT inh 0.1%.
Cc1ccc(OCc2nnc(SCC(=O)c3ccccc3)n2Cc2ccco2)cc1 was read as Prx2 Sm inh >57 and Anthrax LT inh -13.5%.
For COCCNC(=O)CN(c1cc(Cl)ccc1OC)S(C)(=O)=O the results were Prx2 Sm inh >57 and Anthrax LT inh 4.2%.
For CCC(C)NC(=O)C1c2ccccc2C(=O)N1Cc1ccccc1OC (centres undefined) the results were Prx2 Sm inh >57 and Anthrax LT inh 9.3%.
For COCCN1Cc2cccc(C(=O)Nc3ccc(C)c(C)c3)c2C1=O the results were Prx2 Sm inh >57 and Anthrax LT inh 10.4%.
CCN(CCCNC(=O)c1c(C)cc(=O)oc1C)c1ccccc1 was read as Prx2 Sm inh >57 and Anthrax LT inh -3.0%.

Among those listed so far, 2 have fluorine.
N#CCCn1c(=O)c(-c2ccc(F)cc2)nc2cnc(Oc3ccccc3)nc21 was read as Prx2 Sm inh >11.4 and Anthrax LT inh inconclusive.
`O=C(C1COc2ccccc2O1)N1CCN(c2ccc(F)cc2)CC1` (centres undefined) gave Prx2 Sm inh >57 and Anthrax LT inh -5.9%.

Entries from the list above that contain an aryl thioether with sulfur outside any ring, in the order listed:
For Cc1cc(C)nc(SCC(=O)Nc2ccc(S(=O)(=O)Nc3onc(C)c3C)cc2)n1 the results were Prx2 Sm inh >57 and Anthrax LT inh -4.5%.
Screening CN(C)c1nc(SCC#N)nc(N(C)C)n1 returned Prx2 Sm inh >57 and Anthrax LT inh 0.1%.
Cc1ccc(OCc2nnc(SCC(=O)c3ccccc3)n2Cc2ccco2)cc1 was read as Prx2 Sm inh >57 and Anthrax LT inh -13.5%.

Other compounds
`CC1CN(C(=O)c2ccc(C(=O)c3ccccc3)cc2)CC(C)O1` (centres undefined) gave Prx2 Sm inh >57 and Anthrax LT inh -7.1%.
`CCCn1c(CN2CCCCC2CC)nc2c1c(=O)n(C)c(=O)n2C` (centres undefined) gave Prx2 Sm inh >57 and Anthrax LT inh 12.0%.
`CCCc1cc(=O)[nH]c(Nc2ccc(OC)c(Cl)c2)n1` gave Prx2 Sm inh >57 and Anthrax LT inh 14.0%.
Cc1ccc(-c2nn3nnnc3c3ccccc23)cc1 was read as Prx2 Sm inh >57 and Anthrax LT inh 19.0%.
For CCOC(=O)c1cc(C)sc1N1C(=O)C2C3C=CC(C3)C2C1=O (centres undefined) the results were Prx2 Sm inh >57 and Anthrax LT inh -2.1%.
`COc1ccc(-c2ccc(Nc3ccc(S(=O)(=O)N4CCCC4)cc3)nn2)cc1OC` gave Prx2 Sm inh >57 and Anthrax LT inh inconclusive.
Screening Oc1cc(Cl)c(Cl)cc1Cl returned Anthrax LT inh inconclusive.
O=C(O)c1nnsc1COCc1ccccc1 was read as Prx2 Sm inh >57 and Anthrax LT inh -2.0%[8 µM].
For COc1ccc(N2C(=O)C3CCCN3C2c2cccc(C)c2)cc1 (centres undefined) the results were Prx2 Sm inh >57 and Anthrax LT inh 6.6%.
Screening OCCCBr returned Anthrax LT inh -1.2%.
`CCOCCCNS(=O)(=O)c1cc(Br)cc2c1N(C(=O)C1CC1)CC2` gave Prx2 Sm inh >57 and Anthrax LT inh -15.7%.
CC1=C(C(=O)OC(C)C)C(c2cccc(F)c2)N2C(=O)C(C)SC2=N1 (centres undefined) was read as Prx2 Sm inh >57 and Anthrax LT inh inconclusive.
For CCOC(=O)C1CCCN(C(=O)c2ccc(OC(C)=O)cc2)C1 (centres undefined) the results were Anthrax LT inh -17.2%.
COc1ccc(-n2cnnc2SCc2cnc(-c3ccccc3)s2)cc1 was read as Prx2 Sm inh >57 and Anthrax LT inh 2.8%.
`Cc1ccc(B(O)O)cc1` gave Anthrax LT inh -6.6%.
Screening c1ccc2c(c1)c1ccccc1n2Cn1c2ccccc2c2ccccc21 returned Prx2 Sm inh >57 and Anthrax LT inh -1.7%[8 µM].
Screening COC(=O)C1=CN(C)C=C(C(=O)OC)C1c1ccc(O)c(OC)c1 returned Prx2 Sm inh >57 and Anthrax LT inh 8.0%.
`COc1cccc(Cn2c(=O)c(C)nc3cnc(N(C)C)nc32)c1` gave Prx2 Sm inh >57 and Anthrax LT inh 5.7%.
Screening Cn1cccc1C(=O)N1CCC[C@@]2(CCN(c3ccccn3)C2)C1 returned Prx2 Sm inh >57 and Anthrax LT inh 8.9%.
Screening O=C(Nc1ccccc1C(=O)NCC1CCCO1)c1ccco1 (centres undefined) returned Prx2 Sm inh >57 and Anthrax LT inh 3.5%.
`Cn1cc(S(=O)(=O)N2CCc3ccccc3C2)c(=O)n(C)c1=O` gave Prx2 Sm inh >57 and Anthrax LT inh inconclusive.
O=C1NCCCC1C(=O)Nc1cccc(C(F)(F)F)c1 (centres undefined) was read as Prx2 Sm inh >57 and Anthrax LT inh 0.3%.
`CCN(CC)S(=O)(=O)c1cc(C(=O)Nc2nncs2)c(Cl)cc1Cl` gave Prx2 Sm inh >57 and Anthrax LT inh 16.2%.
O=C(COc1nnnc2ccccc12)N1CCCc2ccccc21 was read as Prx2 Sm inh >57 and Anthrax LT inh 10.5%.
Screening Cc1ccc(S(=O)(=O)NCCCCC(NC(=O)OC(C)(C)C)C(=O)O)cc1 (centres undefined) (tested in a mixture with another compound) returned Prx2 Sm inh >57 and Anthrax LT inh -10.9%.
Screening CCn1c(=O)n(CC)c2cc(S(=O)(=O)NCCOc3ccccc3)c(C)cc21 returned Prx2 Sm inh >57.
CCOC(=O)N1CCN(CCC(=O)Nc2ccc(OC)cc2)CC1 was read as Anthrax LT inh 3.2%.
Screening O=Nc1ccc(Nc2ccccc2)cc1 returned Anthrax LT inh inconclusive.
COc1ccc(C2(O)CCN(C(=O)c3c(F)cccc3F)CC2)cc1 was read as Prx2 Sm inh >57 and Anthrax LT inh -1.2%.
Screening CCC1CCCCN1C(=O)N[C@@H](Cc1ccccc1)C(=O)O (some centres undefined) returned Prx2 Sm inh >57 and Anthrax LT inh inconclusive.
`COc1ccc(Oc2ncc3nc(-c4cc(F)cc(F)c4)c(=O)n(CCC#N)c3n2)cc1` gave Prx2 Sm inh >57 and Anthrax LT inh -12.3%.
For Cc1[nH]nc2c1/C(=N\O)CC(C)(C)C2 the results were Prx2 Sm inh >57 and Anthrax LT inh 3.8%.
Screening CCOC(=O)N1CCN(C(=O)CSc2nnc(-c3ccc(Cl)s3)o2)CC1 returned Prx2 Sm inh >57 and Anthrax LT inh 0.2%.
`Cc1ccc(C(=O)NC2CC(C)(C)NC(C)(C)C2)cc1C` gave Prx2 Sm inh >57 and Anthrax LT inh -4.2%.
Screening O=C(CCN1C(=O)COc2ccccc21)NCCN1CCN(c2ccccc2F)CC1 returned Prx2 Sm inh >57 and Anthrax LT inh -3.6%.
For c1ccc(-c2cc3c(ccc4nonc43)nn2)cc1 the results were Anthrax LT inh inconclusive.
Screening Nc1nnc(-c2ccncc2)s1 returned Prx2 Sm inh >57 and Anthrax LT inh -6.3%.
`CCOC(=O)N1CCN(C(=O)CN(C)S(=O)(=O)c2ccc3c(c2)C(C)(C)C(=O)N3C)CC1` gave Prx2 Sm inh >57 and Anthrax LT inh 9.2%.
Screening Nc1ccc(-c2n[nH]c(=O)c3ccccc23)cc1N returned Prx2 Sm inh >57 and Anthrax LT inh 2.1%.
Screening COc1ccc(CCNC(=O)c2ccc3c(c2)NC(=O)C(N2CCOCC2)S3)cc1OC (centres undefined) returned Prx2 Sm inh >57 and Anthrax LT inh 7.5%.
For COc1ccc(-c2c3c(=O)n(C)c(=O)n(C)c3c3nnc4ccccc4n23)cc1 the results were Prx2 Sm inh >57 and Anthrax LT inh -10.9%.
Screening COc1cccc(C2=NOC(C(=O)Nc3ccc(C(C)=O)cc3)C2)c1 (centres undefined) returned Prx2 Sm inh >57 and Anthrax LT inh 0.0%.
For O=C(Oc1ccccc1)N1CCC2(CCN(Cc3ccncc3)CC2)CC1 the results were Prx2 Sm inh >57 and Anthrax LT inh inconclusive.
`O=C1c2ccccc2C(=O)N1CCCCN(C(=O)c1ccco1)c1ccc(Cl)cc1` gave Anthrax LT inh inconclusive.
Screening COc1ccc(OC)c(NC(=O)CSCC(=O)O)c1 returned Prx2 Sm inh >57 and Anthrax LT inh 4.5%.
Screening CCOC(=O)c1cn[nH]c1N returned Prx2 Sm inh >57 and Anthrax LT inh -2.2%.
For CC(=O)NC1C(=O)N=C(SCC(=O)NC2CCCCC2)NC1=O (centres undefined) the results were Prx2 Sm inh >57 and Anthrax LT inh 9.5%.
Cc1cccc(N2C(=O)SC(N(C)c3ccccc3)C2=O)c1 (centres undefined) was read as Prx2 Sm inh >57 and Anthrax LT inh -12.7%.
Screening CCOC(=O)C1CCCN(Cc2ccc(OC)cc2OC)C1 (centres undefined) returned Anthrax LT inh -7.7%.
`COc1ccc(C2CC(=O)N3CN(Cc4ccco4)CSC3=C2C#N)cc1` (centres undefined) gave Prx2 Sm inh >57 and Anthrax LT inh inconclusive.
`CCSc1nc(-c2ccccc2)c(C#N)c(=O)[nH]1` gave Prx2 Sm inh >57 and Anthrax LT inh -11.5%.
C=CCSc1nc2c(c(=O)[nH]c(=O)n2C)n1C(C)C was read as Prx2 Sm inh >57 and Anthrax LT inh 2.0%.
Screening CCOC(=O)N1CCN(c2c(NCc3ccccn3)c(=O)c2=O)CC1 returned Prx2 Sm inh >57 and Anthrax LT inh -14.3%.
Screening CCOC(=O)c1ccc(NC(=O)CCNc2c(N3CCCC3)c(=O)c2=O)cc1 returned Prx2 Sm inh >57 and Anthrax LT inh 5.2%.
Screening c1ccc(-n2nnnc2SCc2cn3cccnc3n2)cc1 returned Prx2 Sm inh >57 and Anthrax LT inh -9.9%.
For COc1ccccc1C1N(c2cc(Cl)ccc2OC)C(=O)C2CCCN21 (centres undefined) the results were Prx2 Sm inh >57 and Anthrax LT inh -20.3%.
For COC(=O)N1CCC2(CCCN(c3ccncc3)C2)CC1 the results were Prx2 Sm inh >57 and Anthrax LT inh -6.3%.
Screening COc1cc(OC)cc(-c2nc(-c3ccccc3OC)no2)c1 returned Prx2 Sm inh >57.
For COc1ccc(-n2ccnc2SCC(=O)NCc2ccc3c(c2)OCO3)cc1 the results were Prx2 Sm inh >57 and Anthrax LT inh -2.8%.
Screening O=C(Nc1ccccc1C(=O)N1CCCCC1)c1cccc(S(=O)(=O)N2CCOCC2)c1 returned Prx2 Sm inh >57 and Anthrax LT inh -3.3%.

Filtered by structure: the entries above with bromine
Screening OCCCBr returned Anthrax LT inh -1.2%.
`CCOCCCNS(=O)(=O)c1cc(Br)cc2c1N(C(=O)C1CC1)CC2` gave Prx2 Sm inh >57 and Anthrax LT inh -15.7%.

Remaining list, next part:
CCN1C(=O)/C(=C/N(C)c2ccccc2)OC1=S was read as Prx2 Sm inh >57 and Anthrax LT inh -5.3%.
For CCOC(=O)N/C(N)=N/c1nc2ccccc2s1 the results were Anthrax LT inh inconclusive.
Screening Cc1cc(C)c2cc(CN(Cc3nnnn3C3CCCCC3)CC3CCCO3)c(=O)[nH]c2c1 (centres undefined) returned Prx2 Sm inh >57 and Anthrax LT inh -4.1%.
`Cc1cc(C(=O)NCc2ccccc2)no1` gave Prx2 Sm inh >57 and Anthrax LT inh -4.0%.
